MrgX1 allo act – allosterically activates human MrgX1 receptor signaling; 310,000 compounds, 0.63% hits; MrgX1-HEK293, Fluo-4 calcium flux, FDSS; stronger effect = higher value; B-score at 10 µM;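 active = plate-corrected calcium response at least 3 library SD above typical, normal starting fluorescence, not activating the receptor alone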;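 note: compound read alongside a low EC10 to EC30 dose of BAM8-22 agonist; peak minus trough fluorescence over baseline measured at the second addition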
PolyA inh – blocks polyadenylation in yeast reporter cells; calls only at 12 µM; S. cerevisiae SKY197-pL101 polyadenylation reporter, beta-gal luminescence; efflux-impaired pdr1/pdr3 knockout yeast; score 100 = 6 SD above DMSO; 300,000 compounds, 0.02% hits;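 active = lowest replicate activity score at least 50, where 100 means six control SD above control mean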;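 note: yeast exposed to compound for 9 h at 30 °C; higher score means more reporter readthrough which indicates perturbed polyadenylation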
TRPC4 inh – inhibitors of mouse TRPC4 channel. 300,000 compounds, 0.39% hits. HEK293 TRPC4beta/mu-opioid, DAMGO-evoked Fluo4 calcium flux; stronger effect = lower value. Q9QUQ5. B-score at 10 µM;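 active = B-score over 3 SD under the library average, no early fluorescence shift, positive overall ratio signal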
Target sequence (Q9QUQ5 whole entry, looked up): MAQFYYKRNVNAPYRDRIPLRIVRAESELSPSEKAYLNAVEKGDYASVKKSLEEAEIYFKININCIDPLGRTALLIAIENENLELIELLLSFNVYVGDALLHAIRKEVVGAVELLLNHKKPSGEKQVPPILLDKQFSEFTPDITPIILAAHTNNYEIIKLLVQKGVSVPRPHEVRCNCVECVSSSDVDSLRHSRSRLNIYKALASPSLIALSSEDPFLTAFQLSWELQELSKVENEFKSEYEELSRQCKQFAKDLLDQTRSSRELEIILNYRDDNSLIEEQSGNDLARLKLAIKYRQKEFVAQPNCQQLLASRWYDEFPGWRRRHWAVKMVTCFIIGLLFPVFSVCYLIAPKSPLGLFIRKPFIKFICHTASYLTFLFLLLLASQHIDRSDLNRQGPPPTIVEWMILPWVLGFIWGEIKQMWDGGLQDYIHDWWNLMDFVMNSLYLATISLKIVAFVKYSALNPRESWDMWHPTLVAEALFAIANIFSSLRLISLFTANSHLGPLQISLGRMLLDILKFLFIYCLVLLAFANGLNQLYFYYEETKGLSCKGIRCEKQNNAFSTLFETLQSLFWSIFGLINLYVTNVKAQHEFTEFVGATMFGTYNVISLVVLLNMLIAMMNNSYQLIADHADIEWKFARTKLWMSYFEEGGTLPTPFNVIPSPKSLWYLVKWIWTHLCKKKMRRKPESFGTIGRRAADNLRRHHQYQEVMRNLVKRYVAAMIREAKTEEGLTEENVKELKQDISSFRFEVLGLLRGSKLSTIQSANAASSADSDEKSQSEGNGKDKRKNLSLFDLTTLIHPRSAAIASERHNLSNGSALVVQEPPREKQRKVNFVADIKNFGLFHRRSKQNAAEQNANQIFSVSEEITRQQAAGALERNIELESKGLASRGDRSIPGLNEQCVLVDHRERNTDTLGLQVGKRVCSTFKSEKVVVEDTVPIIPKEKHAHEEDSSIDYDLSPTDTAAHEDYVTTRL
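test system = HEK293 cells with stable TRPC4beta plus mu-opioid receptor expression | detection = Fluo4 Ca2+ flux fluorescence | read-out = integrated fluorescence ratio relative to baseline, converted to per-well B score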
MrgX1 antagonist – antagonists of human MrgX1 receptor; B-score at 10 µM; 310,000 compounds, 1.3% hits; Q96LB2; MRGX1-HEK293 calcium flux, Fluo-4, BAM8-22 antagonism; stronger effect = lower value;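 active = calcium-response B-score plate-corrected more than 3 library SD below zero, starting fluorescence within 5 deviations, no agonist response on first addition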;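 note: peak minus trough fluorescence over baseline after final BAM8-22 challenge near maximal dose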
TRPC6 activator – mouse TRPC6 channel activation; B-score at 10 µM; Q61143; HEK293-TRPC6 membrane potential dye fluorescence; stronger effect = higher value; 310,000 compounds, 0.13% hits;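 active = B-score of the integrated fluorescence ratio above library mean plus 3 SD, and starting fluorescence ratio within library mean plus 5 SD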;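 note: higher score means more depolarization so channel activation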
TRPC4 agonist – activators of mouse TRPC4 channel; B-score at 10 µM; 310,000 compounds, 0.49% hits; HEK293 TRPC4beta/mu-opioid, Fluo4 calcium fluorescence; stronger effect = higher value; Q9QUQ5;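 active = B-score above 5 SD of library B-scores, and initial fluorescence ratio not above library mean plus 5 SD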;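 note: positive B-score marks a calcium rise read as TRPC4 activation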
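Assay system: HEK293 cells stably co-expressing mouse TRPC4beta and mu-opioid receptor / Timing: Fluo4 dye loading 45 min at room temperature, 110 s recording / Signal: Fluo4 calcium-sensitive dye fluorescence, kinetic, 1 Hz baseline / Read-out: integrated baseline-normalised fluorescence ratio, converted to per-well B score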
TRPC6 inh – blocks the mouse TRPC6 cation channel | HEK293-TRPC6, membrane potential dye, ACh-evoked depolarization; stronger effect = lower value | B-score at 10 µM | 310,000 compounds, 1.1% hits | Q61143 | AID 2553;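 active = B-score under library mean minus 3 SD, initial fluorescence not abnormally high, positive integrated signal ratio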;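 note: B-score derived from integrated fluorescence ratio over the kinetic read; more negative B-score means stronger inhibition of depolarization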
TRPC4 PAM – TRPC4 (mouse) allosteric potentiation. HEK293 TRPC4beta/mu-opioid, DAMGO EC20, Fluo-4 Ca2+ flux; stronger effect = higher value. B-score at 10 µM. 310,000 compounds, 0.42% hits. AID 2227;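 active = B-score of calcium response area above 5 SD of library B-scores, with initial fluorescence ratio within 5 SD of library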;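 note: B-score of integrated fluorescence ratio over time as area under calcium response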
AI-2 QS modul – modulates the Vibrio harveyi AI-2 quorum sensing system; Vibrio harveyi JMH597 AI-2 luminescence/OD600 ratio, 9 h; stronger effect = lower value; strain lacks LuxN and CqsS sensors; 0 = neutral-control median; activity change, % at 7.5 µM; 300,000 compounds, 0.4% hits; in the data active = activity change below about -75%, passing the limit was not always enough;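 note: luminescence divided by OD600 gain over 9 h not by final OD600 alone; inactives centre near 13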
MrgX1 ag – activates human MrgX1 receptor signaling. MrgX1-HEK293 cells, Fluo-4 calcium fluorescence, agonist mode; stronger effect = higher value. Q96LB2. 310,000 compounds, 0.44% hits. AID 588627. B-score at 10 µM;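 active = calcium response B-score plate-corrected fluorescence ratio at least 3 library SD, with starting fluorescence B-score inside 5 SD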
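System: HEK293 cells stably expressing human MrgX1 receptor; Dosing: test compound in the initial addition of three; Schedule: overnight plating, then 30 min 37 °C plus 30 min room-temperature dye loading; Detection: kinetic calcium dye fluorescence, Fluo-4 NW; Controls: per-plate positive and negative controls for Z′ factor.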
Numbers without * were called inactive; i = inactive; . = no result given; & = joins results of further samples.

SMILES	MrgX1 allo act	PolyA inh	TRPC4 inh	MrgX1 antagonist	TRPC6 activator	TRPC4 agonist	TRPC6 inh	TRPC4 PAM	AI-2 QS modul	MrgX1 ag
CCc1cccc(C)c1N(C(=O)Cn1c(=O)[nH]c2ccccc21)C(C)COC (stereo unspecified)	i	i	i	i	i	i	i	i	14.6	i
CN1CCN(Cc2c(O)c(Cl)cc3c(-c4ccccc4)cc(=O)oc23)CC1	i	i	i	i	i	i	i	i	-1.0	i
ONC(=Nc1ccccc1)C(=Nc1ccccc1)NO	i	i	i	i	i	i	i	i	7.0	i
Cc1ccc(-c2nn(C)c(=O)c3ccccc23)cc1CN1CCOCC1	i	i	i	i	i	i	i	i	8.4	i
CCC(=NC(CC)CO)C1=C(O)CC(C)(C)CC1=O (stereo unspecified)	i	i	i	i	i	i	i	i	28.9	i
COCCNc1oc(-c2ccc(C)cc2)nc1C#N	i	i	i	i	i	i	i	i	21.1	i
CC(C)NCC(O)c1ccc(NS(C)(=O)=O)cc1 (stereo unspecified)	i	i	i	i	i	i	i	i	-6.9	i
CN(Cc1cnc2nc(N)nc(N)c2n1)c1ccc(C(=O)N[C@@H](CCC(=O)O)C(=O)O)cc1	i	i	i	i	i	i	i	i	7.0	i
CC(C)CC(C(=O)O)C(C)CC(=O)Nc1ccn(-c2ccccc2)n1 (stereo unspecified)	i	i	i	i	i	i	i	i	17.0	i
C[C@]12CC[C@@H]3c4ccc(O[C@@H]5O[C@H](C(=O)O)[C@@H](O)[C@H](O)[C@H]5O)cc4CC[C@H]3[C@@H]1C[C@@H](O)[C@@H]2O	i	i	i	i	i	i	i	i	19.9	i
CCCCCCCC(=O)OCC(=O)[C@@]1(O)CC[C@H]2[C@@H]3CCC4=CC(=O)CC[C@]4(C)[C@H]3[C@@H](O)C[C@@]21C	i	i	i	i	i	i	i	i	23.4	i
COc1cccc(C2C(C#N)=C(N)Oc3cc(C)[nH]c(=O)c32)c1OC (stereo unspecified)	i	i	i	i	i	i	i	i	10.4	i

Results in TRPC4 PAM, TRPC6 activator and MrgX1 antagonist (2 entries from above):
| Structure | TRPC4 PAM | TRPC6 activator | MrgX1 antagonist |
| --- | --- | --- | --- |
| CN(Cc1cnc2nc(N)nc(N)c2n1)c1ccc(C(=O)N[C@@H](CCC(=O)O)C(=O)O)cc1 | i | i | i |
| CC(C)CC(C(=O)O)C(C)CC(=O)Nc1ccn(-c2ccccc2)n1 (stereo unspecified) | i | i | i |

New compounds follow.
SMILES	MrgX1 allo act	PolyA inh	TRPC4 inh	MrgX1 antagonist	TRPC6 activator	TRPC4 agonist	TRPC6 inh	TRPC4 PAM	AI-2 QS modul	MrgX1 ag
CCc1cc2c(=O)c(-c3cscn3)coc2c(CN(C)C)c1O	i	i	i	i	i	i	i	i	26.0	i
Cc1cc(C)c2c(N)c(C(=O)c3ccccc3)oc2n1	i	i	i	i	i	i	i	i	48.9	i
C(=N\n1cnnc1)/c1ccccn1	i	i	i	i	i	i	i	i	8.2	i
Cc1ncc(CN=Cc2ccc(Cl)cc2)c(N)n1	i	i	i	i	i	i	i	i	9.4	i
CCCC(=O)Nc1ncnc2c1ncn2[C@@H]1O[C@@H]2COP(=O)(O)O[C@H]2[C@H]1OC(=O)CCC	i	i	i	i	i	i	i	i	11.6	i
Nc1ccc(C(=O)O)c(O)c1	i	i	i	i	i	i	i	i	-7.2&27.4	i
COc1ccccc1N(O)C1CC(=O)N(c2ccc(Br)cc2)C1=O (stereo unspecified)	i	i	i	i	i	i	i	i	9.4	i
Cc1cccc(N(CC(O)CN(C)C)S(=O)(=O)c2ccccc2)c1 (stereo unspecified)	i	i	i	i	i	i	i	i	-3.8	i
CC(=O)[C@]1(O)Cc2c(O)c3c(c(O)c2[C@@H](O[C@H]2C[C@H](N)[C@H](O)[C@H](C)O2)C1)C(=O)c1ccccc1C3=O	i	i	i	i	i	i	i	i	2.4	i
Cn1c(=O)c2c(nc(NCc3ccc4c(c3)OCO4)n2Cc2ccccc2Cl)n(C)c1=O	i	i	i	i	i	i	i	i	8.0	i
CN(C)CC(O)COc1ccc(-c2ccc(C#N)cc2)cc1 (stereo unspecified)	i	i	i	i	i	i	i	i	9.0	i
COc1ccccc1N1CCN(CCCCOc2ccc(F)cc2)CC1	i	i	i	i	i	i	i	i	-6.8	i
O=C(Nc1cccc(Cl)c1)Nn1cnnc1	i	i	i	i	i	i	i	i	23.2	i
COc1cccc(C2/C(=C(/O)c3cnn(-c4ccccc4)c3C)C(=O)C(=O)N2CCN(C)C)c1OC (stereo unspecified)	i	i	i	i	i	i	i	i	19.5	i
CCCSc1nnc2n(-c3ccccc3OC)c(=O)c3c4c(sc3n12)CCC4	i	i	i	i	i	i	i	i	33.1	i
O=C1c2ccccc2-c2onc3ccc(NCc4ccco4)c1c23	i	i	i	i	i	i	i	i	6.7	i
O=C1NCC(COCC2CC=CCC2)O1 (stereo unspecified)	i	i	i	i	i	i	i	i	18.6	i
COc1cc(C)nc(N(C)S(=O)(=O)c2ccccc2Cl)n1	i	i	i	i	i	i	i	i	17.3	i
COc1ccc(C2NC(=O)NC(O)(C(F)(F)F)C2C(=O)c2ccc(F)cc2)cc1 (stereo unspecified)	i	i	i	i	i	i	i	i	17.8	i
COc1ccc2[nH]c(C)c(C(=O)CN3CCOCC3)c2c1	i	i	i	i	i	i	i	i	-7.4	i
CN1[C@@H]2CC[C@H]1CC(OC(=O)c1c[nH]c3ccccc13)C2 (stereo partly specified)	i	i	i	i	i	i	i	i	17.3	i
O=S(=O)(c1ccc(Cl)cc1)N1CCC(N2CCCCCC2)CC1	i	i	i	i	i	i	i	i	1.0	i
C=CCc1cccc(/C=N/n2cnnc2)c1O	i	i	i	i	i	i	i	i	-2.6	i
Cc1ccc(-c2ccc(/C=N/c3ncn[nH]3)o2)cc1Cl	i	i	i	i	i	i	i	i	24.2	i
c1ccc(CNCCN2CCNCC2)nc1	i	i	i	i	i	i	i	i	23.4	i
CCOC(=O)C1=C(C)N=C2SC(C)C(=O)N2C1c1cccc(F)c1 (stereo unspecified)	i	i	i	i	i	i	i	i	28.6	i
CCCOc1ccc(-c2nnc(N)s2)cc1	i	i	i	i	i	i	i	i	9.0	i
CCOC(=O)C(C#N)C(Cc1ccccc1)c1ccco1 (stereo unspecified)	i	i	i	i	i	i	i	i	3.6	i
Cc1cc(C)c(/C=C2\C(=O)Nc3ccccc32)[nH]1	i	i	i	i	i	i	i	i	27.1	i
Cc1ccc(C(=O)NCCCNCCCNC(=O)c2ccc(C)nc2)cn1	i	i	i	i	i	i	i	i	22.7	i
COc1ccccc1-c1c(C)oc2c(CN3CCN(C)CC3)c(O)ccc2c1=O	i	i	i	i	i	i	i	i	6.2	i
CCOc1ccc(C2CC(c3ccccc3)Nc3nc(N)nn32)cc1 (stereo unspecified)	i	i	i	i	i	i	i	i	25.2	i
COc1ccc(C2N3CC4(C)CN2CC(C)(C3)C4O)cc1OC (stereo unspecified)	i	i	i	i	i	i	i	i	10.7	i
OCCOCCNc1ncnc2c1cnn2-c1ccccc1	i	i	i	i	i	i	i	i	3.1	i
CC12CCC(=O)C=C1CCC1C2C(=O)CC2(C)C1CC[C@]2(O)C(=O)CO (stereo partly specified)	i	i	i	i	i	i	i	i	27.9	i
CCN1CCN(c2cc3c(cc2F)c(=O)c(C(=O)O)cn3C2CC2)CC1	i	i	i	i	i	i	i	i	25.9	i
CC(C)C(=O)Nc1ccc([N+](=O)[O-])c(C(F)(F)F)c1	i	i	i	i	i	i	i	i	19.2	i
CC(=NC1CCCC1)c1c(C)[nH]n(-c2nc3ccccc3s2)c1=O	i	i	i	i	i	i	i	i	36.6	i
Nc1nnc(-c2cccc(Cl)c2Cl)c(N)n1	i	i	i	i	i	i	i	i	22.8	i
C/C(=N/n1cnnc1)c1cccnc1	i	i	i	i	i	i	i	i	24.9	i
CN1C(=O)OC(C)(C)C1=O	i	i	i	i	i	i	i	i	15.9	i
CC12CCC(=O)C=C1CCC1C2C(=O)CC2(C)C1CCC2(O)C(=O)CO (stereo unspecified)	i	i	i	i	i	i	i	i	13.8	i
C[C@H](CCC(=O)NCC(=O)O)[C@H]1CC[C@H]2C3[C@H](O)C[C@@H]4C[C@H](O)CC[C@]4(C)[C@H]3C[C@H](O)[C@]12C (stereo partly specified)	i	i	i	i	i	i	i	i	-6.4	i
CCCCc1nc(NCCN2CCOCC2)c(C#N)c2c1COC(C)(C)C2	i	i	i	i	i	i	i	i	8.2	i
CCC(NC(=O)Nn1cnnc1)(C(F)(F)F)C(F)(F)F	i	i	i	i	i	i	i	i	29.3	i
COc1ccc2c(c1OC)C(=O)N1c3ccccc3C(=O)N(c3ccccc3)C21 (stereo unspecified)	i	i	i	i	i	i	i	i	3.5	i
CC(C)NCC(O)c1ccc(O)c(O)c1 (stereo unspecified)	i	i	i	i	i	i	i	i	-6.9	32.9*
c1ccc(C2Nc3ccccc3-c3nc4ccccc4n32)nc1 (stereo unspecified)	i	i	i	i	i	i	i	i	10.3	i
CCOC(=O)CSc1nnc2n(C3CCCCC3)c(=O)c3c4c(sc3n12)CCCC4	i	i	i	i	i	i	i	i	12.9	i
CC1(C)CC(=O)C2=C(C1)OC(N)=C(C#N)C2C1CC=CCC1 (stereo unspecified)	i	i	i	i	i	i	i	i	19.5	i
N=c1ncn(CC(O)CN2CCOCC2)c2nc(N3CCOCC3)[nH]c12 (stereo unspecified)	i	i	i	i	i	i	i	i	7.5	i
COC(=O)c1c(C)noc1-c1cc(C)on1	i	i	i	i	i	i	i	i	13.8	i
Cc1ccc(S(=O)(=O)NC(=O)Nc2ncc3c(n2)CC(c2ccco2)CC3=O)cc1 (stereo unspecified)	i	.	i	i	i	i	i	i	29.4	i
Oc1cc(O)c2c(c1)OC(c1ccc(O)c(O)c1)C(O)C2 (stereo unspecified)	i	.	.	i	.	.	.	.	.	i
COc1ccc(Nc2nnc(C)c3ccccc23)cc1C(N)=O	i	i	i	i	i	i	i	i	30.1	i
Cn1c(=O)c2c(nc(Br)n2CCSc2ncccn2)n(C)c1=O	i	.	i	i	i	i	i	i	39.6	i
CCCCC/C=C\C[C@H](O)/C=C/c1cccc(C[C@H](O)CCCCO)n1	i	i	i	i	i	i	i	i	14.6	i
Cn1ncc(N=Cc2ccccc2O)c1C(=O)N1CCOCC1	i	i	i	i	i	i	i	i	13.5	i

Screens: PubChem, several laboratories

Not all compounds are listed, so the mix of outcomes need not match the whole.
